# High-throughput results: PubChem, National Center for Advancing Translational Sciences (NCATS)
# 2A StopGo = FMDV 2A StopGo reporter, luciferase signal. human cells with a luciferase reporter of 2A StopGo recoding; control for the full effect not named in the record. AID 1159524. Potency, µM (doses to about 57.9 µM), for the others: at the highest dose signal change, negative = less light. 1.2% of 410,000 active; active = well fitted falling curve with a large enough effect; inconclusive = small, poorly fitted or top-dose-only effect; inactive = no such curve, though single readings can be large or run the other way; tested in HEK293T cells; note: % is set by controls: 0 for no effect and ±100 for the full control effect; nearly all actives have a fitted effect of over 45% in size; luciferase light after 4 h
# MARV entry inh = inhibitors of Marburg virus binding or cell entry | 1.8% of 300,000 active | Potency, µM (series often up to 37.8 µM), without a hit: at the top dose activity change, negative = inhibition, usual class: inhibitors | Marburg virus pseudotyped entry inhibition, cell reporter; control for the full effect not named in the record; about a third of the inactives were read at about 46 µM; active = well fitted inhibition curve with a large enough effect; inconclusive = small, poorly fitted or top-dose-only effect, or effect the other way; inactive = flat fitted curve, though single readings scatter; tested in HEK293 cells; about a fifth of its hits are not listed in these tables; note: % is set by controls: 0 for no effect and ±100 for the full control effect; luciferase read-out
# SARS PLpro yeast = SARS-CoV PLP inhibition in yeast; Potency, µM (highest dose often 32.9 µM), without a hit: top-dose activity, positive = growth rescue; AID 485353; S. cerevisiae expressing SARS-CoV PLpro, growth rescue; control for the full effect not named in the record; 0.19% of 330,000 active; active means well fitted rising curve with a large enough effect; inconclusive means small, poorly fitted or top-dose-only effect; inactive means no such curve, though single readings can be large or run the other way; note: 0% is about no effect; nearly all actives have a fitted effect of over 55% in size; growth read by luminescence after 48 h
# Cruzain noTriton = blocks cruzain activity in detergent-free assay. P25779. purified cruzain, Z-FR-AMC fluorescence, no detergent. Potency, µM, inactives show max response, negative = inhibition, actives largely listed as inhibitors. 2.3% of 200,000 active;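 note: plate controls were enzyme without inhibitor for no effect and buffer without enzyme for full effect; nearly all actives have a fitted effect of over 40% in size; top concentration of the series not given in the record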
# Target sequence (P25779 123-467 limits assumed): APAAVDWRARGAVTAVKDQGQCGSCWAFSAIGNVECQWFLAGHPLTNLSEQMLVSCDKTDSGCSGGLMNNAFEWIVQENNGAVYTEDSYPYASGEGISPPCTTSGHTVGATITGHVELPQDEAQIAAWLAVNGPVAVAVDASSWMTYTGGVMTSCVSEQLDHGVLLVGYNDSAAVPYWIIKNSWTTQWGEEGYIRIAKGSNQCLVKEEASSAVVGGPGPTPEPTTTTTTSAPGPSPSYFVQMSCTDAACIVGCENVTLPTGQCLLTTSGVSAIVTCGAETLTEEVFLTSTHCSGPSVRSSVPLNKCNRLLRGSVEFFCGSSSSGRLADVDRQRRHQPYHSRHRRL
#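 Detergent-free condition (0.00005% Triton X-100) in acetate buffer pH 5.5 with DTT. 1.5 nM enzyme and compound were pre-mixed 15 min, then 2 uM Z-FR-AMC substrate added; reaction progress from fluorescence change between first and third reads (60 s).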
# Cruzain inh Det = inhibitors of Trypanosoma cruzi cruzain with detergent; P25779; Potency, µM, for the others: max response, negative = inhibition, hits mostly inhibitors; 0.43% of 200,000 active; purified cruzain, Z-FR-AMC fluorescence, 0.01% Triton;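 note: plate controls were neutral wells for no effect and buffer without enzyme for full effect; nearly all actives have a fitted effect of over 40% in size; top concentration of the series not given in the record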
#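 15 min RT preincubation of 1.5 nM cruzain with compound, then 2 uM Z-FR-AMC added; kinetic AMC fluorescence, 60 s delta. Triton X-100 0.01%, pH 5.5.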
# Lassa entry inh = inhibitors of Lassa virus binding or cell entry; Lassa virus pseudotype entry inhibition, cell reporter; control for the full effect not named in the record; Potency, µM (doses to about 37.9 µM), for inactives: top-dose activity change, negative = inhibition, usual class: inhibitors; 1.2% of 300,000 active; active means well fitted inhibition curve with a large enough effect; inconclusive means small, poorly fitted or top-dose-only effect, or effect the other way; inactive means flat fitted curve, though single readings scatter; tested in HEK293 cells; note: % is set by controls: 0 for no effect and ±100 for the full control effect; nearly all actives have a fitted effect of over 50% in size; luciferase read-out
# NS1 function inh = inhibitors of influenza NS1 protein function; AID 2326; S. cerevisiae slowed by influenza A NS1, growth recovery by OD600; Potency, µM (highest dose often 46.1 µM), without a hit: at the highest dose activity, positive = more growth; 0.4% of 270,000 active; active means well fitted rising curve with a large enough effect; inconclusive means small, poorly fitted or top-dose-only effect; inactive means no such curve, though single readings can be large or run the other way; note: nearly all actives have a fitted effect of over 50% in size
#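 S. cerevisiae expressing influenza A NS1, grown in glucose, washed, then diluted 1:100 into pH 6.0 -URA galactose medium with 23 nl compound. Growth recovery read as OD600; NS1-free strain serves as control.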
# RE007 growth inh = less growth of the S. pombe RE007 Vpr strain; 0.21% of 360,000 active; Potency, µM (doses to about 92.2 µM), for the others: at the top dose activity change, negative = less growth; S. pombe RE007 Vpr strain, BacTiter-Glo ATP luminescence, 24 h; control for the full effect not named in the record; AID 651644; active = well fitted falling curve with a large enough effect; inconclusive = small, poorly fitted or top-dose-only effect; inactive = no such curve, though single readings can be large or run the other way;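 note: % is set by controls: 0 for no effect and ±100 for the full control effect; nearly all actives have a fitted effect of over 50% in size; the assay follows cell death caused by Vpr and the record does not say whether a fall means rescue or toxicity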
#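 Fission yeast strain RE007, carrying one chromosomally integrated HIV-1 vpr copy, was seeded at OD 0.01 in PMG+AL medium with 23 nL pinned compound. After 24 h at 30 °C and 99% humidity, viability was read by BacTiter-Glo luminescence.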
# Active calls of the source: *; ? = inconclusive; · = not tested or not shown; & = joins results of further samples; [ ] = another dose, or the depositor's remark. Unless noted, calls come from the whole dose curve; as a rule, active = well fitted curve in the direction sought with a large enough effect; inconclusive = small, poorly fitted or top-dose-only effect, or another doubt; inactive = no such curve, though single readings can be large; an effect the other way counts as inactive or inconclusive. Potency is the fitted concentration of half-maximal effect.
SMILES,2A StopGo,MARV entry inh,SARS PLpro yeast,Cruzain noTriton,Cruzain inh Det,Lassa entry inh,NS1 function inh,RE007 growth inh
COc1ccc2[nH]c(=O)c(CN(CC3CCCO3)C(=O)Nc3ccc(F)cc3)cc2c1 (stereo not drawn),14µM*,?,7%,24%,-0.8%,11µM*,-30%,5%
COC(=O)c1ccc(C23CC4(C2)[C@H](CN(Cc2ccc(C(F)(F)F)cc2)[C@@H]4c2ccccc2)C3c2ccccc2)cc1 (stereo partly drawn),-11%,·,2%,-21%,-2.0%,·,10%,10%
O=C(CCS(=O)(=O)c1ccccc1)N(CCCN1CCOCC1)c1nc2c(F)cccc2s1,40µM*,?,3%,·,·,?,·,-6%
CCOC(=O)c1ccc(S(=O)(=O)N2CCN(C(C)=O)CC2)cc1,10%,?,-2%,·,·,6%,·,-13%
O=C(c1cccs1)c1cn(CCOc2ccc(F)cc2)c2ccccc12,-21%,-15%[46.1 µM],·,-1%,-5.4%,21%[46.1 µM],·,·
Cc1ccc(OCC(=O)Nc2ccc3c(c2)nc(CCNC(=O)c2ccco2)n3C)cc1,?,?,·,6%,-7.8%,4%[46.1 µM],·,·
c1csc(CNc2ncnc3ccc(-c4ccc5c(c4)OCO5)cc23)c1,0%&-13%,·,1%&-2%,3%,-2.4%,·,·,·
CCC(=NCCC(c1ccccc1)c1ccccc1)c1c(O)n(C)c(=O)n(C)c1=O,?,?,19%,19%,-6.5%,?,-5%,2%
O=C(Nc1ccc(C(F)(F)F)cc1)C1CCCN(c2cnccn2)C1 (stereo not drawn),-6%,5%[46.1 µM],·,2%,-7.1%,-2%[46.1 µM],·,·
O=C(Cn1nc(-c2ccccc2)ccc1=O)NCc1ccc2c(c1)OCO2,·,6%,-2%,-1%,3.3%,?,-7%,-4%
CC(/C=N/NC(=O)c1cccs1)=C\c1ccccc1,-7%,?,-5%,·,·,-22%,·,3%
CCCn1c(=O)c(C(=O)NCc2ccc3c(c2)OCO3)c(O)c2ccccc21,3%,·,2%,·,·,·,24%,-1%
Nn1c(Cc2cccc3ccccc23)nnc1SCCOc1ccc(F)cc1,6%,?,-6%,3%,-6.9%,?,-12%,7%
COc1ccccc1C1CCN(Cc2c(C)[nH]c3ccccc23)CC1,-24%,?,0%,·,·,-2%[46.1 µM],2%,2%
CC(C)Oc1ccc(/C=N/NC(=O)C2CCCN2S(=O)(=O)c2ccc(Cl)cc2)cc1 (stereo not drawn),-23%,6%,·,?,-5.1%,-27%,-1%,-8%
Cc1nnc(SCC(=O)NC(=O)NCCC(C)C)s1,-4%,0%[46.1 µM],-3%,·,·,2%[46.1 µM],·,1%
COc1ccc(S(=O)(=O)N(C)CC(=O)Nc2ccc3c(c2)OCO3)cc1,·,6%,-4%,-10%,-0.7%,-15%,2%,7%
CCOc1ccccc1CNC(=O)c1nn(CC)cc1[N+](=O)[O-],-12%,-1%,-16%,4%,1.7%,-2%,4%,3%
NS(=O)(=O)c1ccc(NC(=O)N[C@@H](Cc2ccccc2)C(=O)O)cc1,2%,9%&9%,18%,-1%,-2.4%,-2%,7%,6%
Cc1ccc(N(CC(=O)N2CCc3ccccc3C2)S(C)(=O)=O)cc1,-1%,9%,6%,·,·,4%,17%,2%
O=C1OCCN1C(=O)[C@H]1[C@H](c2ccc(Cl)cc2)C(c2ccccc2)=NN1c1ccc(Br)cc1,-24%,·,5%,11µM*,-2.6%,·,·,3%
CCC(C)n1c(=O)c2sccc2n2c(CCCC(=O)N3CCN(c4ccccc4)CC3)nnc12 (stereo not drawn),-24%,·,·,?,-0.1%,-3%[46.1 µM],·,·
CC(=O)NCCNC(=O)C1CCCCN1S(=O)(=O)c1ccccc1 (stereo not drawn),9%,10%[14.2 µM],1%,·,·,4%,8%,-2%
Cc1nc2ccc(Cl)cc2c(-c2ccccc2)c1CC(=O)O,-15%,-9%,0%,-1%,-0.8%,-1%,-1%,1%
OCC1CCCN(C(=S)Nc2ccc(OC(F)F)cc2)C1 (stereo not drawn),78%[activator],-2%,29%,4%,-1.8%,27%,1%,6%
O=C(Oc1ccc(N2C(=O)C3C4CCC(C4)C3C2=O)cc1)c1ccco1 (stereo not drawn),2%,-3%[46.1 µM],0%,·,·,6%[46.1 µM],3%,1%
COC(=O)Nc1nc(-c2ccccc2)c(C(=O)c2ccc(Cl)cc2)s1,-16%,?,-3%,7%,-2.1%,?,6%,2%
CCOC(=O)N1CCN(S(=O)(=O)c2cn(C)c(=O)n(C)c2=O)CC1,0%,23%,4%,·,·,21%,5%,-3%
O=C(COC(=O)CCN=C1NS(=O)(=O)c2ccccc21)NC1CCCCCCC1,-10%,·,3%,·,·,·,2%,0%
CNC(=O)C1Cc2ccccc2CN1S(=O)(=O)c1ccc(OC)c(OC)c1 (stereo not drawn),-3%,?,7%,·,·,3%,7%,2%
CC(Sc1nc2cc([N+](=O)[O-])ccc2n1-c1cccc(C(F)(F)F)c1)C(=O)NC(N)=O (stereo not drawn),?,-2%,1%,-8%,-1.1%,?,13%,-9%
CC(NC(=O)COC(=O)Cc1ccc(-c2ccccc2)cc1)c1ccccc1 (stereo not drawn),-4%,?,9%,-1%,-8.2%,2%,-2%,4%
CCOc1cccc(C(=O)Nc2ccc3c(c2)OCCO3)c1,-25%,?,-5%,·,·,?,-17%,-11%
O=C(CN(c1ccc(Cl)cc1)S(=O)(=O)c1ccccc1)N/N=C/c1ccco1,-13%,-23%,-2%,11%,-8.9%,-21%,11%,4%
CCOC(=O)C1=C(COC(=O)COc2ccc(C(=O)CC)cc2)NC(=O)NC1C (stereo not drawn),-19%,4%,1%,·,·,5%,·,13%
Cn1c(CC(=O)Nc2ccccc2F)nnc1SCC(=O)Nc1nncs1,-3%,1%[46.1 µM],0%,·,·,1%,8%,2%
O=C(COC(=O)COc1ccc(Cl)cc1)Nc1ccc(F)c([N+](=O)[O-])c1,-8%,28%,-5%,-1%,-10%,6%,-39%,·
O=C1N(Cc2ccccc2F)c2ccccc2C12OCCCO2,-12%,-6%,0%,-11%,-4.7%,-2%,-5%,-11%
COC(=O)C1=C(O)CSC1=Nc1ccc(C)cc1,-21%,6%,13%,-9%,-1.0%,18%,10%,·
CCc1ccc(CN2CCSCC2)cc1,4%,9%,0%,·,·,-17%,-1%,-1%
COc1cc(OC)cc(-c2nnc(SCC(=O)c3ccc([N+](=O)[O-])cc3)o2)c1,-4%,?,·,-5%,1.1%,11%[46.1 µM],·,·
CCN(CC)S(=O)(=O)c1ccc(NC2c3ccccc3C(=O)N2CCN2CCOCC2)cc1 (stereo not drawn),-8%,·,2%,1%,0.8%,·,-5%,-1%
C1=C(c2ccco2)N2CCN=C2S1,-1%,?,3%,·,·,21%,7%,-8%
CC(CCc1ccc(O)cc1)NCc1ccc(Cl)cc1Cl (stereo not drawn),-25%,?,-4%,·,·,7%,0%,-11%
CCOc1ccc(-n2ccnc2SCC(=O)Nc2nnc(C)s2)cc1,?,-30%,-9%,5%,1.4%,-19%,2%,-6%
CN(C(=O)Cn1nc(C(=O)O)c2ccccc2c1=O)C1CCCCC1,27%,4%,-6%,·,·,-2%,·,17%
COc1ccc(-c2nc(-c3ccccc3OC)no2)cc1OC,2%,28%,-15%,?,-6.6%,20%,-59%,-3%
CNC(=S)Nc1ccc(-c2nc3ccc(C)cc3s2)cc1,-29%,?,-1%,·,·,?,10%,3%

# Part of the list above, showing only Lassa entry inh and Cruzain inh Det.
Molecule | Lassa entry inh | Cruzain inh Det
CC(C)Oc1ccc(/C=N/NC(=O)C2CCCN2S(=O)(=O)c2ccc(Cl)cc2)cc1 (stereo not drawn) | -27% | -5.1%
Cc1nnc(SCC(=O)NC(=O)NCCC(C)C)s1 | 2%[46.1 µM] | ·

# (further entries)
SMILES,2A StopGo,MARV entry inh,SARS PLpro yeast,Cruzain noTriton,Cruzain inh Det,Lassa entry inh,NS1 function inh,RE007 growth inh
CCCCc1nnc(NC(=O)c2ccc(OCc3c(C)noc3C)cc2)s1,?,?,11%,·,·,?,·,-3%
COCCN(C(=O)CNC(=O)c1ccco1)C(C(=O)NC1CCCC1)c1ccccc1 (stereo not drawn),17%,1%[46.1 µM],1%,·,·,·,-22%,-6%
CC(=O)Oc1ccc(Cl)cc1/C=C/c1cc(OC(C)=O)c2ccccc2n1,·,?,1%,12%,-8.4%,?,9%,·
COC(=O)C1C2C=CC(C3CC23)C1C(=O)OCC(=O)c1ccccc1 (stereo not drawn),-12%,-17%,-1%,6%,-7.2%,?,-3%,4%
C=C1c2cc(C)c(C)cc2NC(=O)N1c1ccccc1,13%,?,0%,·,·,?,2%,2%
C#CCNC(=O)C1CCN(c2ccc(S(=O)(=O)N3CCOCC3)cc2Cl)CC1,-30%,8%[46.1 µM],2%,·,·,?,1%,-6%
Cc1cc(S(=O)(=O)N2CCCC2)ccc1OCC(=O)N1CCC(C(N)=O)CC1,0%,28%[46.1 µM],2%,·,·,19%,6%,4%
COc1ccc(CCN(C)C(=O)c2cnc(C)cn2)cc1OC,0%,11%[46.1 µM],2%,·,·,11%,2%,3%
Cc1ccc(N2C(=O)CSC2c2ccccn2)cc1Cl (stereo not drawn),-13%,-11%,7%,1%,3.3%,16%,3%,-8%
Cc1ccc(C)c(Cn2c3ccccc3c3cnn(CC(=O)NCCCc4ccccc4)c(=O)c32)c1,9%,?,·,3%,0.7%,3%[46.1 µM],·,·
COc1cccc(C(=O)c2cn(CC(=O)NCc3ccccc3)c3nc(C)ccc3c2=O)c1,23%,·,·,-13%,-0.9%,-1%[46.1 µM],·,·
Cn1c(=O)n(CCCO)c(=O)c2c1nc1n2CCCN1Cc1ccccc1,0%,·,0%,·,·,·,-10%,-10%
Cc1cccc(-c2noc(CCCOc3ccc(Cl)cc3Cl)n2)c1,-5%,-9%[46.1 µM],4%,-9%,1.6%,1%,-13%,?
O=C(N/N=C/c1ccccn1)c1ccc(Br)cc1,?,?,?,-11%,-6.0%,?,-50%,?
CCOC(=O)c1c(C)[nH]c(C(=O)COc2ccc3c(c2)OCO3)c1C,56%[activator],-5%,-4%,?,1.0%,-13%,-8%,13%
